# Assay outcomes deposited in PubChem BioAssay by ICCB-Longwood Screening Facility, Harvard Medical School.
# GIV-Gai inh: blocks GIV peptide binding to rat Galpha-i3; P08753; Galpha-i3/FITC-GIV peptide fluorescence polarization, 90 min; hits give low values; scaled: aluminum fluoride 0%, vehicle 100%; percent of control (FP), % (concentration not given with the values); actives 0.42% (n = 210,000);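 active = replicate mean at 85% of control or lower, very high polarization wells dropped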;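 note: wells of about 15 µL received 100 nL stock; the first replicate is given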
# Target sequence (P08753 whole entry, looked up): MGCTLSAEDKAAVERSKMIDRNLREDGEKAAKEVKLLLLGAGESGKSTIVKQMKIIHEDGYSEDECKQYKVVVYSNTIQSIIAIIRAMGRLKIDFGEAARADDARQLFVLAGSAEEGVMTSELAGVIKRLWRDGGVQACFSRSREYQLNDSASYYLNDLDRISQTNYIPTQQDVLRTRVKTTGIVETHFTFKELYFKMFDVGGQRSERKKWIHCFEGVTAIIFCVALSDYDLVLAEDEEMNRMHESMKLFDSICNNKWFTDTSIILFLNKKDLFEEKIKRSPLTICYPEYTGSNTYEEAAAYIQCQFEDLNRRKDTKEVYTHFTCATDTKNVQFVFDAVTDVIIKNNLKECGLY
# HCMV UL50-53 inh: inhibitors of HCMV UL50-UL53 nuclear egress complex interaction | HTRF UL50-UL53 interaction, normalized percent inhibition | inhibition, % (no concentration beside the values) | actives 0.15% (n = 190,000) | AID 1918969;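 active = both replicates at 50% or more, plus weaker picks with an unusually low signal ratio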;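 note: stock transfer was 100 nL into about 20 µL; 0% = negative control wells and 100% = wells with untagged competitor protein; inactives centre near -12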
# Sa growth inh: blocks Staphylococcus aureus growth. S. aureus RN4220 growth, OD600, 20 h, 42 °C; hits give low values. relative growth, % (no concentration beside the values). actives 0.53% (n = 170,000);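 active = growth at 42 °C up to 50% and 20 or more points under that at 30 °C, or under 10% at both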;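 note: 300 nL library stock went into each well; scaled to the means of positive and negative controls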
# Sa growth inh second temp: also measured in Sa growth inh; calls as there; relative growth, %; measured here: growth at 30 °C;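 optical density after 20 h as mean of two plates; 100% = untreated growth and lower means inhibition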
# * = called active by the depositor; / = no result given; & = joins results of further samples.
nr	SMILES	Sa growth inh second temp	GIV-Gai inh	Sa growth inh	HCMV UL50-53 inh
1	O=C(CCCCn1c(=O)c2ccccc2n(Cc2cccc(Cl)c2)c1=O)NCc1ccc2c(c1)OCO2	91	100	100	-15
2	O=C(O)c1cc(-c2ccccc2)on1	103	103	84	7
3	O=C(Nc1ccc(Cl)cc1)NC1CC2CCC1C2 (stereo unspecified)	103	100	118	-7
4	CC(C)C(=O)Nc1ccc(N2CCN(C(=O)c3ccccc3)CC2)cc1	90	99	96	4
5	CCOC(=O)C1=C(c2ccccc2)Nc2ncnn2C1c1ccncc1 (stereo unspecified)	102	97	113	-3
6	Cc1nn(-c2ccccc2)c(Cl)c1CSc1nnc(N)s1	99	/	109	-2
7	O=C(NCc1cccnc1)c1ccc(CN2C(=O)CSc3ncccc32)cc1	/	104	/	9
8	Cc1ccc(-c2onc(C)c2C)cc1S(=O)(=O)NC1CCC(C)CC1 (stereo unspecified)	82	106	104	/
9	Cc1ccc(NC(=O)CCc2nnc3ccc(NCc4ccc(F)cc4)nn23)cc1	/	105	/	2
10	COc1ccc(N2CCN(C(=S)Cc3ccccc3)CC2)cc1	98	/	86	16
11	COc1ccc(CC(=O)NCC2COc3ccccc3O2)cc1OC (stereo unspecified)	94	97&96	110	-14
12	O=c1oc2cc(O)ccc2cc1-c1csc(-c2ccccc2Cl)n1	88	112	85	5

# Complete entries, quoted from the list. Order of values: Sa growth inh second temp, GIV-Gai inh, Sa growth inh, HCMV UL50-53 inh
# O=C(Nc1ccc(Cl)cc1)NC1CC2CCC1C2 (stereo unspecified) is listed with 103, 100, 118, -7
# COc1ccc(CC(=O)NCC2COc3ccccc3O2)cc1OC (stereo unspecified) is listed with 94, 97&96, 110, -14

# Continued:
nr	SMILES	Sa growth inh second temp	GIV-Gai inh	Sa growth inh	HCMV UL50-53 inh
13	COc1ccc(-c2nc3scc(CCNS(=O)(=O)c4cccs4)n3n2)cc1	100	103	95	/
14	C=CCn1c(CCC(=O)O)ccc1-c1ccccc1	102	110	105	-9
15	Cc1cccc(CNC(=O)C2CCCN(S(=O)(=O)c3cn(C)cn3)C2)c1 (stereo unspecified)	89	102	107	/
16	O=C(Nc1nccs1)c1ccc(CSc2ccccc2)o1	79	102	77	-1
17	CCCCCn1nc(C)c(/C=N\NC(=O)c2cccs2)c1C	69	95	108	3
18	COc1cccc(CN(Cc2ccco2)C(c2ccc(OC)c(OC)c2)c2nnnn2Cc2ccccc2)c1 (stereo unspecified)	91	103	106	5
19	Cc1ccc(-c2noc(CCc3ccccc3)n2)cc1	87	97	86	-16
20	CC1CCN(C(=O)CSc2nc(-c3ccccc3)no2)CC1	74	112	86	/
21	CCOc1ccc(-c2noc(CSc3ccc(-c4ccc5c(c4)OCO5)nn3)n2)cc1OC	/	107	/	-12
22	Cn1c(NCc2cc(Cl)ccc2O)nc2ccccc21	80	105	98	7
23	Nc1c(S(=O)(=O)c2ccccc2)nnn1-c1ccccc1	80	99	107	-26
24	Cc1cnc(NS(=O)(=O)c2cn(C)cn2)c(Br)c1	89	104	113	-22
25	Cc1cccc(C(=O)NCc2nnc(SCC(=O)Nc3ccccc3F)n2-c2ccccc2)c1	87	95	113	-8
26	Nn1c(SCC(=O)NCc2ccc3c(c2)OCO3)nnc1C1CC1	101	/	85	2
27	O=c1cc(-c2nc3ccccc3s2)oc2ccccc12	79	/	100	-81
28	COC(=O)CC1(C(=O)OC)Oc2ccc(Br)cc2C(=O)N1c1ccc(F)cc1F (stereo unspecified)	92	101	90	-7
29	CCOC(=O)c1cccc(NC(=O)CCc2ccccc2)c1	96	/	99	-1
30	NC(Cc1ccc(Cl)cc1)C(=O)O (stereo unspecified)	/	100	/	-18
31	CC1CCCN(CCCNS(=O)(=O)c2ccc(-c3ccc(=O)[nH]n3)o2)C1 (stereo unspecified)	93	108	84	-83
32	Clc1ccc(CSc2nncn2-c2ccc3c(c2)OCCO3)cc1	87	110	103	-6
33	CCOC(=O)c1c(Cl)nc2ccccc2c1Cl	88	100	92	-26
34	CC1CCCN(C(=O)CCCn2c3ccccc3c3cnn(C)c(=O)c32)C1 (stereo unspecified)	/	99	/	-35
35	CC1(C)C2CCC1(CS(=O)(=O)N1CCCc3ccccc31)C(=O)C2 (stereo unspecified)	93	103	106	-5
36	CN1C(C(=O)NCC2CCCO2)=CC(c2ccc3c(c2)OCO3)=NS1(=O)=O (stereo unspecified)	/	104	/	-100
37	CC(=O)NCCNc1nc2c(-c3ccc(C)cc3)nnn2c2ccccc12	87	110	105	-15
38	COc1ccc2cc(CNc3ccc(C)cc3)c(=O)n(CC(=O)Nc3ccc(C)cc3Cl)c2c1	85	103	99	/
39	O=C(c1ccc2cn[nH]c2c1)N1CCC2(CC1)OCCO2	93	107	102	-16
40	CN(C)c1ncc(C(=O)O)cn1	80	100	81	-16
41	CCOC(=O)c1ncoc1-c1ccc(Cl)cc1	67	95	104	-9
42	CCOc1ccc(-c2c(C)nn3c(C)c(C(=O)Nc4ccc(N(CC)CC)cc4C)cnc23)cc1OCC	/	105	/	-6
43	O=C(CCN1C(=O)/C(=C/c2ccc(Cl)cc2Cl)SC1=S)Nc1nccs1	/	103	/	-3
44	CC(=O)N[C@@H](C)C(=O)N1CCN(S(=O)(=O)c2ccc(Cl)cc2)CC1	99	/	97	-11
45	COc1cccc(N2CCN(C(=O)Cn3nc(C)n4c(cc5c(OC)cccc54)c3=O)CC2)c1	86	96	108	-19
46	Cc1[nH]c2ccc(-c3nnc(SCC(=O)NC(C)c4nc5ccccc5[nH]4)o3)cc2c1C (stereo unspecified)	/	101	/	16
47	Cc1ccccc1Cn1c(-c2cccs2)noc1=O	76	100	86	/
48	CCn1c(SCc2cc(=O)oc3cc(O)ccc23)nc2ccccc21	94	/	93	-8

# From no. 37 as far as 40, copied from above:
nr	SMILES	Sa growth inh second temp	GIV-Gai inh	Sa growth inh	HCMV UL50-53 inh
37	CC(=O)NCCNc1nc2c(-c3ccc(C)cc3)nnn2c2ccccc12	87	110	105	-15
38	COc1ccc2cc(CNc3ccc(C)cc3)c(=O)n(CC(=O)Nc3ccc(C)cc3Cl)c2c1	85	103	99	/
39	O=C(c1ccc2cn[nH]c2c1)N1CCC2(CC1)OCCO2	93	107	102	-16
40	CN(C)c1ncc(C(=O)O)cn1	80	100	81	-16

# Following part
nr	SMILES	Sa growth inh second temp	GIV-Gai inh	Sa growth inh	HCMV UL50-53 inh
49	Cc1nc(C(=O)Nc2ccccc2)sc1C(=O)Nc1ccccc1	78	95	97	1
50	COc1ccc(S(=O)(=O)Nc2cc3c(cc2Oc2ccccc2)n(C)c(=O)c(=O)n3C)cc1	/	98	/	-10
51	COC(=O)c1ccc(OC(=O)C(C)C)cc1	95	107	109	-8
52	O=C(COc1ccc(Cl)cc1)CC(=O)c1ccc(Cl)cc1	15	98	18	/
53	O=C(Nc1n[nH]c(C2CCCCC2)n1)C1CCCCC1	102	110	130	-15
54	O=C(c1ccccc1)N1CCN(C(=O)c2nn3c(C(F)(F)F)cc(-c4ccco4)nc3c2Cl)CC1	/	100	/	-28
55	Nn1c(CCC2CCCCC2)n[nH]c1=S	86	/	98	-5
56	Nc1ncc(-c2nc3ccccc3s2)c(N)n1	62	-55*	117	-14
57	O/N=C/c1cc2c(cc1Br)OCO2	/	101	/	-31
58	CCOc1ccc(CNC(=O)CN2N=C(c3ccccc3)CCC2=O)cc1OC	97	104	121	/
59	Cc1ccc(S(=O)(=O)c2nc(C(C)(C)C)oc2N2CCOCC2)cc1	93	106	116	-6
60	CCCCCn1c(CCCNC(=O)c2ccccc2OC)nc2ccccc21	79	106	96	-12
61	Cc1cccc(-c2noc(CN(C3CCCCC3)S(=O)(=O)c3ccc(F)cc3)n2)c1	86	108	105	-24
62	Cc1cc(-c2ccc(C)c(S(=O)(=O)N3CCCN(Cc4ccc(F)cc4)C3)c2)on1	101	106	98	14
63	COc1cc2c(cc1OC)C(COc1cccc(C(F)(F)F)c1)N(C(=O)c1ccc(S(=O)(=O)N3CCCC3)cc1)CC2 (stereo unspecified)	88	105	115	/
64	CCOc1ccc(NC(=O)CS(=O)(=O)c2cccc3nsnc23)cc1	88	103	98	-38
65	Cc1cc(NC(=O)NN2CCOCC2)nn1-c1c(Cl)cc(Cl)cc1Cl	96	106	113	-21
66	CCCN(CCC)c1nc(OC)nc(OC)n1	96	107	101	-4
67	Cc1cccc(OCc2nnc(SCc3csc(Nc4ccccc4C)n3)o2)c1	95	/	125	-4
68	Cc1ccc(-c2nc3nc(C)cc(N(CCO)Cc4ccccc4)n3n2)cc1	/	111	/	-16
69	COC(=O)c1c(N)sc(C(=O)N2CCCC2)c1C	78	105	97	-4
70	O=C(Cn1nnc2sc3c(c2c1=O)CCCC3)OCc1ccccc1	87	109	88	-14
71	Cc1cc(Cl)ccc1OCC(=O)N(Cc1ccc(N(C)C)cc1)C1CCS(=O)(=O)C1 (stereo unspecified)	89	100	100	-15
72	O=C(NCc1ccc(N2CCOCC2)cc1)c1cc(F)cc2c1OCOC2	90	106	108	-45
73	COc1ccc(N(Cc2nc3nc(C)c(Cl)c(C)n3n2)C(=O)C(C)(C)C)cc1	/	109	/	-20
74	O=C1c2ccccc2-c2nc(-c3ccccc3)cc3cccc1c23	86	104	91	/
75	COc1ccc(CCNC(=O)COc2cc(C)c3ccccc3n2)cc1	96	/	121	0
76	COc1ccc(C2c3cc4c(cc3OC(C)(N3CCCC3)C2C)OCO4)cc1 (stereo unspecified)	91	/	91	2
77	O=C(O)/C=C/C(=O)N(Cc1ccccc1)Cc1ccccc1	81	102	93	/
78	COc1ncnc2sc(-c3ccccc3)cc12	68	/	105	-48
79	Cc1nnc(NCc2ccc(Cl)cc2)c2c1nnn2Cc1ccc(F)cc1	85	101	87	-29
80	O=C(CSC(=O)c1ccccc1)Nc1ccc(Br)cc1F	69	/	84	-12
81	CCN(CC)S(=O)(=O)c1ccc2c(c1)nc(CN(C)C(=O)Nc1ccc(F)cc1)n2C	83	97	107	/
82	Brc1ccc(OCc2nnc3sc(-c4ccccn4)nn23)cc1	/	106	/	9
83	CC1CC(C(=O)O)C(C(=O)O)CC1C (stereo unspecified)	94	104	95	-19
84	COc1cccc(-n2c(=O)c3c(C)c(C(=O)N(C)C)sc3n(Cc3ccccc3)c2=O)c1	90	99	107	5
85	CCCCN(Cc1ccco1)S(=O)(=O)c1c[nH]c(C(=O)OC)c1	95	108	96	14
86	Cc1ccc(-c2c(C(F)(F)F)nn3c(NCCN4CCOCC4)cc(C)nc23)cc1	/	94	/	-2
87	Cc1nc2sccn2c1/C=N/NC(=O)C12CC3CC(CC(C3)C1)C2	84	/	90	-31
88	Cc1cc(-c2ccc(C)c(S(=O)(=O)N(CC(C)C)CC(C)C)c2)on1	93	102	86	7
89	Cc1ccc(CNC(=O)c2cc3c(=O)n(Cc4ccco4)ccc3nc2C)cc1	90	104	80	/
90	O=C(NCCN1CCN(c2cccc(Cl)c2)CC1)Nc1ccccc1C(F)(F)F	68	100	89	58
91	Oc1cccc(C=Nc2ccc(N3CCCCC3)cc2)c1O	84	/	121	-48
92	CC12CC3(C(=O)O)C1CCC23C (stereo unspecified)	77	/	109	-24
93	CC(=O)Nc1c2n(c3ccccc13)CC(C)(C(=O)NC1CCCC1)N(C1CCC(C)CC1)C2=O (stereo unspecified)	/	97	/	-21
94	Cc1ccc(NC(=O)C2CCN(c3nc(-c4ccccc4C)no3)CC2)nc1	/	99	/	11
95	CC1(C)C(=O)NN(c2cccc(O)c2)C1=O	/	100	/	-72
96	COc1ccc(Cn2c(C(=O)O)c(CNC3CCC(C)CC3)c3ccc(C)cc32)cc1 (stereo unspecified)	98	112	119	/
97	COc1cc(OC)c(NC(=O)c2cc(C(F)(F)F)n(C)n2)cc1Cl	/	103	/	-7
98	CCNC(=O)c1nc(N2CCCC2)c2ccccc2n1	/	111	/	-8
99	Cc1noc(C)c1-c1nnc(-c2ccc(C(F)(F)F)cc2)o1	87	106	108	-5
100	Cc1c(C(=O)O)sc(=S)n1CCOc1ccccc1	45	106	73	/
101	COc1ccc(N2CCN(c3nc4ccccc4n4c(C)nnc34)CC2)cc1	81	101	117	-20
102	O=S(=O)(c1ccccc1)N1N=C(c2ccccc2)CC1c1ccc(Br)cc1 (stereo unspecified)	/	114	/	-20
103	Cc1csc2nc(COC(=O)CNC(=O)c3ccccc3Cl)cc(=O)n12	86	98	87	/
104	CCOc1ccccc1NC(=O)C1CCN(S(=O)(=O)c2ccc3[nH]c(=O)ccc3c2)CC1	91	97	106	/
105	CC(OC(=O)c1ccncc1)C(=O)Nc1ccc(N2CCOCC2)cc1 (stereo unspecified)	94	/	94	-5
106	CCN(Cc1ccccc1)C(=O)c1cccc(C2CCCN(C(=O)NC(C)C)C2)c1 (stereo unspecified)	/	110	/	-11
107	CCOc1ccc(-n2c(SCC(N)=O)nc3ccccc3c2=O)cc1	89	/	85	-11
108	Cc1ccc(-n2c(C)cc(C)c(C#N)c2=O)cc1Cl	90	/	101	-10
109	Cc1cc(=O)[nH]c(-n2nc(C)cc2C)n1	/	97	/	-16
110	CCCCC(=O)OC1=C(C(=O)c2ccccc2)N(CCC)S(=O)(=O)c2ccccc21	7.9*	92	4.0*	6
111	CCC(=O)ONc1nc(C)cc(C)n1	93	100	106	-2
